gsp ag = agonists of gsp mutant (McCune-Albright syndrome) | gsp mutant cells, cAMP HTRF, 30 min; control for the full effect not named in the record | Potency, µM (series often up to 76.9 µM), for inactives: top-dose activation (cAMP increase), most hits filed as activators | 0.13% of 340,000 active; active = well fitted activation curve with a large enough effect; inconclusive = small, poorly fitted or top-dose-only effect, or another doubt; inactive = no such curve, though single readings can be large or run the other way; cell line not stated here;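 further: phosphodiesterase inhibitor Ro 20-1724 added with compounds to block cAMP breakdown; potency means the concentration at half of the fitted maximal effect; nearly all actives have a fitted effect of over 60% in size; about a fifth of the inactives were tested at one dose only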
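Cells in DMEM/10% FBS with G418 were pretreated with compounds in DMSO plus […] (300 uM stock) for 30 min at 37C. cAMP was measured by HTRF (cAMP-d2 plus anti-cAMP antibody-K) after 30 min at room temperature.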
ClpP mod = qHTS Assay for Activators of ClpP. purified B. subtilis ClpP, FRET peptide cleavage, 20 min. Potency, µM (highest dose often 57.5 µM), without a hit: at the highest dose activity change, negative = active. ATP-dependent Clp protease proteolytic subunit (Bacillus subtilis (strain 168)), P80244. 1.9% of 340,000 active; active = well fitted falling curve with a large enough effect; inconclusive = small, poorly fitted or top-dose-only effect; inactive = no such curve, though single readings can be large or run the other way; further: potency means the concentration at half of the fitted maximal effect; the source files actives as falling curves though it sought activators and does not explain the sign; nearly all actives have a fitted effect of over 65% in size; many hits overshoot -100%
Target sequence (P80244 whole entry, looked up): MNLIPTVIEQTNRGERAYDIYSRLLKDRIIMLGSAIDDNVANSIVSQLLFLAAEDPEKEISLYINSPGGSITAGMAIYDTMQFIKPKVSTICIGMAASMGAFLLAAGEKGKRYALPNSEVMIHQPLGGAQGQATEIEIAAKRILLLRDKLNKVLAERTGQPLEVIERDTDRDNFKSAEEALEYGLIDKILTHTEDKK
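FRET quenching reversal measured ClpP activation: 10 microg/mL B. subtilis ClpP at pH 8 with the FRET-FV decapeptide, read at 430 nm after 320 nm excitation. The 20-min minus 0-min signal was scaled between DMSO/no-enzyme wells and ADEP (5.8 microM final).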
Menin MLL FP FL = inhibitors of human menin-MLL interaction, wild-type MLL peptide. FP activity change, % at 61.4 µM. Fluorescence polarization, fluorescein-MLL peptide displacement from menin. 290,000 tested, under 10 active. AID 1766; inconclusive = falling polarisation curve, or a change in total fluorescence; inactive = total fluorescence flat and polarisation flat or rising; no compound was filed as active; the % refers to the polarisation; negative = inhibition;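 further: % of control where 0% means no effect; inhibitors lower the polarisation; unlabelled MLL peptide was the positive control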
TRPML1 ag = agonists of human TRPML1 channel; activation, % (concentration not given with the values); 0.12% of 410,000 active; TRPML1-expressing cells, Ca2+ dye fluorescence, FDSS; host cell line not named in the record; reference of the full effect not given here; in the data active = activation above about 50%; inconclusive = about 30% to 50%; inactive = below about 30%; further: 0% is about no effect; the text of the record puts the active cut at 80%
Target sequence (Q9GZU1 whole entry, looked up): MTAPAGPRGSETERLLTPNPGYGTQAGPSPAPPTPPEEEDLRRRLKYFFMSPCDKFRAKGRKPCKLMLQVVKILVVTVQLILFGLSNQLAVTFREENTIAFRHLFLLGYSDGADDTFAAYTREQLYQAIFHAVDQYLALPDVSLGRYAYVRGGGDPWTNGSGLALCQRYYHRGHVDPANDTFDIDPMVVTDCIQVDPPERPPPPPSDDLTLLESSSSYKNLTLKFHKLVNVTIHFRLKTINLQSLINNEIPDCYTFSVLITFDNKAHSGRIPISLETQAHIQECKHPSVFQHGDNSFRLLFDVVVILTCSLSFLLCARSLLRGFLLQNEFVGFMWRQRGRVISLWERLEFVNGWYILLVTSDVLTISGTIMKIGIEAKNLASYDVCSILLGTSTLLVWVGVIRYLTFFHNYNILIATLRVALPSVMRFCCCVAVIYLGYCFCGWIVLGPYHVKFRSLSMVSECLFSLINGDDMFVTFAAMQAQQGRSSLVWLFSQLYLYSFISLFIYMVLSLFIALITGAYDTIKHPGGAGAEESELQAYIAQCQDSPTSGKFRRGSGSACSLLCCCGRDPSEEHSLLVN
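Cells: TRPML1-DL, 1X Tet inducer, ~16 h at 37 degrees C/5% CO2. Dye: ABD Ca8 no-wash + quencher, 45-90 min RT. Read: 10 s baseline, compound add, 110 s agonist phase; 54-4 EC80 (4uM final), 110 s antagonist phase.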
TRPML1 inh = inhibitors of human TRPML1 channel | Q9GZU1 | TRPML1-inducible cells, Ca2+ dye fluorescence, FDSS; active compounds read low; inhibition of EC80 agonist-evoked calcium signal | activity change, negative = inhibition, % (no concentration beside the values) | 0.02% of 390,000 active | AID 624415; in the data active means activity change below about -50%; inconclusive means about -30% to -50%; inactive means above about -30%;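 further: stimulus is agonist 54-4 at its EC80 concentration; on the % scale 0 is the no-effect control and ±100 the full control effect; compound concentration not given in the record; the text of the record puts the active cut at -80%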
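Calcium fluorescence in TRPML1-DL cells induced overnight with Tet: a 110 s read after compound pin addition, then a 110 s antagonist read after challenge with 54-4 at 4 uM final (EC80).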
gsp antag = gsp mutant antagonism; gsp-mutant cells, cAMP HTRF, 30 min; control for the full effect not named in the record; Potency, µM (highest dose often 76.9 µM), for the others: at the top dose activity change, negative = inhibition, usual class: inhibitors; 0.4% of 340,000 active; AID 624288; active = falling curve of any shape with a large fitted effect; inconclusive = falling curve, mostly with a smaller effect; inactive = flat or rising curve; cell line not stated here;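 further: intracellular cAMP measured with PDE inhibitor Ro 20-1724 present during compound exposure; potency means the concentration at half of the fitted maximal effect; on the % scale 0 is the no-effect control and ±100 the full control effect; nearly all actives have a fitted effect of over 65% in size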
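Cells in G418 medium, seeded 16-24 h, 37C; buffer exchange to DPBS + 1 mM CaCl2, 0.5 mM MgCl2, 0.05% BSA; cpds in DMSO + […] (300 uM stock), 30 min 37C; HTRF cAMP detection.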
Numbers without * were called inactive; ? = inconclusive; nt = no result given; & = joins results of further samples; [ ] = another dose, or the depositor's remark.

SMILES | gsp ag | ClpP mod | Menin MLL FP FL | TRPML1 ag | TRPML1 inh | gsp antag
Cc1ccc(-c2nnc(NC3CCCC3)s2)cc1 | -2%[15.4 µM] | -1.3% | 2.7 | 0.6 | -14 | 2%
CCn1c(=O)c(=O)[nH]c2cc(C(=O)Nc3ccc(S(=O)(=O)N4CCCC4)cc3)ccc21 | -7% | -20% | 0.8 | 0.3 | 16 | 3%
O=C(NC(=O)N1CCN(c2ccc(F)cc2)CC1)c1ccccc1 | 35% | -6.2% | 6.0 | 0.4 | 14 | -4%
Cc1c(Cl)c(C(F)F)nn1CC(=O)NC1C(=O)N2C(C(=O)O)=C(CSc3nnnn3C)CSC12 (stereo not drawn) | -1% | -0.2% | 1.4 | -0.2 | -1 | 3%
CCOc1ccccc1NC(=O)c1c(NC(=O)Cc2ccc(OC)cc2)sc2c1CCC2 | nt | -5.5% | nt | -0.2 | 2 | nt
c1cncc(-c2nnc(-c3cccnc3)nn2)c1 | -13% | -2.6% | 7.5 | 0.0 | -4 | -8%
CN1/C(=C\C=O)C(C)(C)c2ccccc21 | 6%[15.4 µM] | nt | 0.6 | 0.6 | 4 | 13%
CCCc1ccc(-c2cc(N)n[nH]2)cc1 | -45%[inhibitor] | -3.2% | -0.7 | -1.1 | -1 | -2%
COc1cc(/C=N/NC(=O)c2cccnc2)ccc1OC(=O)c1cc(OC)c(OC)c(OC)c1 | -6%[15.4 µM] | nt | -0.9 | -0.4 | 2 | 3%
CCOc1ccc(/C=C2\SC(=S)N(CCC(=O)Nc3ccc(C(=O)O)cc3)C2=O)cc1 | 17% | 0.6% | 0.5 | 0.9 | -22 | -32%
CCOC(=O)c1cc2c(ccn2C)n1Cc1ccccc1Cl | -80%[inhibitor] | -25% | -0.6 | 2.7 | -11 | -22%
Cc1ccc(N2C(=O)CC(Sc3nccc(C)n3)C2=O)cc1 (stereo not drawn) | -14% | nt | -0.1 | -0.6 | 12 | 4%
O=C(COC(=O)c1cccc(F)c1)NC1CC1 | -29%[15.4 µM] | 0.5% | -1.7 | 1.0 | 10 | -14%
COc1ccc(OC)c(NC(=O)Cc2ccc(NC3=NC4CS(=O)(=O)CC4S3)cc2)c1 (stereo not drawn) | -7% | -1.4% | -0.2 | 0.5 | -3 | 1%
O=C(CCc1nc2ccccc2[nH]1)NCc1ccc2c(c1)OCO2 | -52%[inhibitor] | 1.0% | -2.7 | -0.1 | 0 | 4%

Quoted at random: 2 records from the list
SMILES | gsp ag | ClpP mod | Menin MLL FP FL | TRPML1 ag | TRPML1 inh | gsp antag
O=C(NC(=O)N1CCN(c2ccc(F)cc2)CC1)c1ccccc1 | 35% | -6.2% | 6.0 | 0.4 | 14 | -4%
O=C(CCc1nc2ccccc2[nH]1)NCc1ccc2c(c1)OCO2 | -52%[inhibitor] | 1.0% | -2.7 | -0.1 | 0 | 4%

The list goes on.
SMILES | gsp ag | ClpP mod | Menin MLL FP FL | TRPML1 ag | TRPML1 inh | gsp antag
Cc1noc(C)c1COc1ccccc1C(=O)N1CCN(S(=O)(=O)c2ccccc2C(F)(F)F)CC1 | ? | -1.1% | nt | 0.1 | 4 | 1%
COc1ccc(/C=C2\SC(=S)N(CCCC(=O)Nc3ccccn3)C2=O)cc1OC | 1% | 0.4% | ? | 2.9 | ? | -23%
Cc1ccc(S(=O)(=O)N2CCC(C(=O)NCc3ccncc3)CC2)cc1 | -51%[inhibitor] | -3.5% | 3.5 | -0.7 | 7 | 15%
CC(OC(=O)c1ccc(S(=O)(=O)N2CCCCC2)cc1)C(=O)Nc1ccc(C(N)=O)cc1 (stereo not drawn) | -52%[inhibitor] | 0.9% | nt | 0.3 | -18 | 19%
Cc1ccc(NC(=O)C(Cc2ccccc2)NS(=O)(=O)c2ccc3c(c2)c(=O)n(C)c(=O)n3C)cc1 (stereo not drawn) | nt | -3.1% | nt | 0.3 | 4 | nt
COc1ccc(C(=O)COC(=O)C(CCSC)NC(=O)COc2ccccc2)cc1 (stereo not drawn) | 1% | -1.9% | nt | 0.3 | -12 | -6%
Cc1cc2cc(CN(Cc3ccco3)S(=O)(=O)c3c(C)ccc4nsnc34)c(=O)[nH]c2cc1C | -14% | -7.2% | ? | -0.6 | 6 | -18%
Cc1ccc(NC(=O)NCCN2CCN(C(=O)Nc3ccc(C)cc3)CC2)cc1 | 11% | nt | -0.6 | 0.3 | 35 | 2%
CCOC(=O)c1c(NC(=O)CN2CCCc3ccccc32)sc(C(C)=O)c1C | -51%[inhibitor] | -1.7% | 2.8 | 0.0 | 4 | 18%
COc1cc(/C=N/NC(=S)NCCN2CCOCC2)cc(OC)c1O | 3%[15.4 µM] | -3.8% | 4.4 | -0.3 | 5 | 2%
Cn1ccnc1SCC(=O)Nc1cccc(Br)c1 | nt | 0.2% | nt | 1.8 | -16 | nt
Cn1nc([N+](=O)[O-])nc1Sc1ccc(Cl)cc1 | 4% | 1.4% | -3.7 | 0.9 | -4 | 2%
CC(C)(C)CC(C)(C)c1ccc(O)c(CN2CCN(CCC#N)CC2)c1 | 17% | 3.2% | 2.1 | -0.8 | 6 | 12%
O=C(Oc1ccccc1Cl)c1ccccc1 | ? | -2.9% | nt | 0.6 | -15 | -4%
CCOc1cc(NC(=S)NCCCN2CCOCC2)c(OCC)cc1NC(=O)C1CCCCC1 | -11% | -0.1% | -2.3 | 0.9 | -9 | -4%
CCOC(=O)C1CCN(CCCSc2ccccc2)CC1 | 4% | 0.8% | nt | 2.9 | -5 | 6%
Cc1cccc(N2CCN(S(=O)(=O)c3ccc4c(c3)CCCN4C(=O)C3CCC3)CC2C)c1 (stereo not drawn) | ? | -7.5%&-9.8% | nt | 1.0&1.4 | 11&29 | -12%
O=C(NN=C1CCCC1)NC1CCCCC1 | -5%[15.4 µM] | ? | nt | -0.3 | -12 | 19%
CCCOc1ccc(N2C(=O)CC(SCC(N)C(=O)OCC)C2=O)cc1 (stereo not drawn) | -17% | 2.5% | -0.3 | -0.4 | 6 | -7%
CN1CCN(/N=C/c2nc(-c3ccccc3Cl)n3ccccc23)CC1 | -39%[inhibitor] | -3.5% | 2.7 | 0.8 | -10 | 0%
CCc1ccc(NC(=O)CN2C(=O)C(c3ccc(Cl)cc3)=NC23CCCCC3)cc1 | nt | 1.3% | nt | 1.2 | 6 | nt
CCOC(=O)c1c(C#N)c(SCC(=O)Nc2ccc(OC)cc2)nc2c1CN(CC)CC2 | 14% | 0.8% | -1.9 | 0.0 | -25 | 4%
COc1ccc(CCC(=O)NNC(=O)Nc2ccccc2Cl)cc1 | -7% | -1.3% | -1.2 | -0.7 | 5 | 0%
COc1ccc(Oc2ncc(CN3CCN(c4ccccc4)CC3)s2)cc1 | 2% | 0.8% | 0.2 | 1.5 | 13 | 4%
O=C(COc1ccccc1)NCCc1nc2ccccc2[nH]1 | -22% | 1.7% | 0.6 | -0.3 | -6 | -2%
Cc1ccc(/C=N/NC(=O)CSc2ccccn2)o1 | -3%[15.4 µM] | nt | -0.7 | 0.1 | -7 | -7%
CC(C)CCC(CC(C)O)c1n[nH]c(=S)n1-c1ccccc1 (stereo not drawn) | -3% | -2.6% | -0.1 | 1.6 | 4 | -11%
COc1ccc(-c2cc(=O)oc3cc(OC(C)C(=O)NCC4CCC(C(=O)O)CC4)ccc23)cc1 (stereo not drawn) | 3% | -19% | 2.1 | -0.4 | -8 | -11%
CCNC(=O)Nc1ccc2c(c1)c(=O)n(C)n2Cc1ccc(Cl)cc1 | nt | 3.7% | nt | 0.1 | -3 | nt
CCCCn1c(=N)n(CC(=O)C(C)(C)C)c2ccccc21 | 22% | -8.0% | 3.1 | 1.0 | -4 | -18%
CC(C)NC(=O)Cn1nc(C(F)(F)F)c2c1CCC2 | 2% | 0.6% | 4.9 | 0.4 | -25 | 9%
COc1ccc(OC)c(CCNC(=O)c2ccc3c(c2)c(C)c(C)n3Cc2ccccc2)c1 | nt | ? | nt | 0.9 | -13 | nt
O=[N+]([O-])c1ccc(N2CCN(CCO)CC2)cc1NCc1ccco1 | -1% | 1.2% | -0.9 | 0.1 | 25 | 2%
Cc1cccc(N(Cc2ccccc2)C(=O)c2cc(S(=O)(=O)N3CCOCC3)ccc2Cl)c1 | -11%[15.4 µM] | nt | nt | 0.8 | 1 | -8%
CC(=O)Nc1ccc(NC(=O)C(=O)N/N=C/c2cccnc2)cc1 | 28% | 0.4% | 4.3 | 0.4 | 16 | 2%
C(=N\N1CCN(Cc2cccc3ccccc23)CC1)/c1cccs1 | -24%[15.4 µM] | nt | 1.4 | 0.6 | 7 | -8%
CCN(Cc1ccccc1)c1ccc(/C=C(\C#N)c2ccccn2)cc1 | 0% | 1.0% | ? | 1.1 | 27 | -4%
CCOc1ccc(OCC)c(NC(=O)C2CCN(S(=O)(=O)c3c(C)noc3/C=C/c3ccccc3F)CC2)c1 | nt | -2.7% | nt | -0.8 | 0 | nt
C=CCn1c(COc2ccc(F)cc2)nnc1SCC(=O)Nc1cccc(S(N)(=O)=O)c1 | -56%[inhibitor] | nt | 2.3 | -0.8 | 0 | -7%
Cc1ccc(NC(=O)NNc2cccc(Cl)n2)cc1 | 0% | 1.8% | 1.0 | 0.3 | -7 | 22%
O=C(C1CCN(Cc2ccc(Cl)cc2)CC1)N1CCN(C(c2ccccc2)c2ccccc2)CC1 | -12% | -4.2% | 3.1 | 1.2 | 35 | -14%
Cc1ccc(-c2noc(CSc3nc(N)cc(N)n3)n2)cc1 | -5% | 0.0% | 1.5 | -0.6 | -1 | -14%
CC(=O)OCCc1c2ccccc2c(CCCN(C)C)c2ccccc12 | -8% | nt | nt | 1.7 | -19 | 11%
Cc1ccc(-n2nc(C)c3c2OC(N)=C(C#N)C3c2ccccc2F)cc1 (stereo not drawn) | 3% | -2.8% | 4.0 | -0.1 | 8 | -5%
CCOc1ccccc1NC(=O)C(Cc1ccccc1)NS(=O)(=O)c1ccc(Br)s1 (stereo not drawn) | nt | -4.1% | nt | 0.1 | -2 | nt
C[C@H](CO)N1C[C@H](C)[C@H](CN(C)Cc2ccccc2)Oc2ccc(NC(=O)Nc3ccc(F)cc3)cc2C1=O | nt | -12% | nt | -0.2 | -19 | -14%
CCN(CC(=O)Nc1cccc(S(=O)(=O)N(C)c2ccccc2)c1)Cc1ccccc1 | -23% | -1.0% | nt | 2.2 | 11 | ?
COc1cccc(C(=O)NNC(=O)C(=O)Nc2ccc(OC)cc2OC)c1 | 3% | nt | nt | 0.1 | 35 | -12%
Cc1ccc(N(C(=O)Cn2nnc(-c3cccs3)n2)C(C(=O)NC2CCCC2)c2ccncc2)cc1 (stereo not drawn) | -3% | 1.4% | 3.9 | 0.1 | 1 | -10%
Cc1cc(NC(=O)C2C3C(=O)N(c4cccnc4)C(C(=O)NC(C)(C)C)C34C=CC2(C)O4)no1 (stereo not drawn) | -3%[15.4 µM] | 0.7% | 3.9 | -0.2 | 15 | -1%
O=c1nc2n(c3ncccc13)CCCCC2 | -12%[15.4 µM] | nt | 0.3 | -0.2 | -2 | 6%
